gsp antagonist: antagonists of gsp mutant (McCune-Albright syndrome); 0.4% of 340,000 active; Potency, µM (series often up to 76.9 µM), for the others: at the top dose activity change, negative = inhibition, most hits filed as inhibitors; AID 624288; gsp-mutant cells, cAMP HTRF, 30 min; control for the full effect not named in the record; active = falling curve of any shape with a large fitted effect; inconclusive = falling curve, mostly with a smaller effect; inactive = flat or rising curve; cell line not stated here;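 further: intracellular cAMP measured with PDE inhibitor Ro 20-1724 present during compound exposure; potency means the concentration at half of the fitted maximal effect; on the % scale 0 is the no-effect control and ±100 the full control effect; nearly all actives have a fitted effect of over 65% in size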
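Cells, 2000/well, grown 16–24 h in DMEM 10% FBS with 0.5 mg/ml G418, then compounds plus […] (300 uM addition stock), 30 min at 37C. cAMP read by HTRF (cAMP-d2 and anti-cAMP antibody-K in lysis buffer) after 30 min RT.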
Menin MLL FP FL: displaces fluorescein MLL peptide from human menin; 290,000 tested, under 10 active; Fluorescence polarization, fluorescein-MLL peptide displacement from menin; AID 1766; FP activity change, % at 61.4 µM; inconclusive = falling polarisation curve, or a change in total fluorescence; inactive = total fluorescence flat and polarisation flat or rising; no compound was filed as active; the % refers to the polarisation; negative = inhibition;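 further: % of control where 0% means no effect; inhibitors lower the polarisation; unlabelled MLL peptide was the positive control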
Sfp PPTase inh: blocks B. subtilis Sfp PPTase activity. 3.5% of 310,000 active. Q9F4F7. Potency, µM, without a hit: max response, negative = inhibition, actives largely listed as inhibitors. AID 1490. Biochemical Sfp PPTase activity, qHTS; active means well fitted inhibition curve with a large enough effect; inconclusive means small, poorly fitted or top-dose-only effect, or another doubt; inactive means no such curve, though single readings can be large or run the other way;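 further: the enzyme is Sfp with the accession as filed and its product quenches rhodamine fluorescence; potency means the concentration at half of the fitted maximal effect; 0% = enzyme reaction without inhibitor and -100% = no enzyme wells; top concentration of the series not given in the record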
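Reaction rates are the 30-min fluorescence difference (ex 525, em 598 nm) in wells containing 15 nM Sfp, 5 uM rhodamine-CoA and 12.5 uM BHQ-2-YbbR at pH 7.6 with 10 mM MgCl2.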
D2 ag: agonists of human D2 dopamine receptor (beta-arrestin); DiscoveRx PathHunter D2 beta-arrestin, luminescence, 90 min; 100% = 57 uM dopamine signal; activation, % (concentration not given with the values); 0.084% of 360,000 active; AID 624465; in the data active = activation above about 40%; inconclusive = about 15% to 40%; inactive = below about 15%; further: compound concentration not given in the record; the text of the record calls up to 30% inactive
Target sequence (P14416 whole entry, looked up): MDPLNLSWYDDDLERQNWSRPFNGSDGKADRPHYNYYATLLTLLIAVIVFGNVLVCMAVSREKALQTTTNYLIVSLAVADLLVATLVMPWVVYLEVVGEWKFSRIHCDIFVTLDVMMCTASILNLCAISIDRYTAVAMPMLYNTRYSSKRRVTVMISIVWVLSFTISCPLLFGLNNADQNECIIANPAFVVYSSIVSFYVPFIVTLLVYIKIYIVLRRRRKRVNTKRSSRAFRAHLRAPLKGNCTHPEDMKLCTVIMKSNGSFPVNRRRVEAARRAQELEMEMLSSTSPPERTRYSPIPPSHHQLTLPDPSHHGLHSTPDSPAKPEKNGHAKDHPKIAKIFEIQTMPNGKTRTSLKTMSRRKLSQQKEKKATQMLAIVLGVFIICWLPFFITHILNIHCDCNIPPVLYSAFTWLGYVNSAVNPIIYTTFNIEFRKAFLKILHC
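Agonist mode: compounds alone added to overnight-plated D2 PathHunter cells for 90 min at 37 C, with 57 uM final dopamine (EC100) defining full response. Beta-arrestin recruitment detected by chemiluminescent reagent, read after 1 h at ambient temperature.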
gsp agonist: activates gsp, the McCune-Albright syndrome mutation; gsp mutant cells, cAMP HTRF, 30 min; control for the full effect not named in the record; 0.13% of 340,000 active; Potency, µM (titrated, usually from 76.9 µM), without a hit: at the highest dose activation (cAMP increase), most hits filed as activators; active = well fitted activation curve with a large enough effect; inconclusive = small, poorly fitted or top-dose-only effect, or another doubt; inactive = no such curve, though single readings can be large or run the other way; cell line not stated here;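 further: phosphodiesterase inhibitor Ro 20-1724 added with compounds to block cAMP breakdown; potency means the concentration at half of the fitted maximal effect; nearly all actives have a fitted effect of over 60% in size; about a fifth of the inactives were tested at one dose only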
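Cells stably selected in G418 were plated at 2000/well, grown 16-24 hr, then given compounds in DMSO with the PDE inhibitor […] (300 uM solution added) for 30 min at 37C; cAMP was read by HTRF.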
ClpP mod: qHTS Assay for Activators of ClpP | purified B. subtilis ClpP, FRET peptide cleavage, 20 min | Potency, µM (highest dose often 57.5 µM), for inactives: at the highest dose activity change, negative = active | 1.9% of 340,000 active | AID 651965, 2013; active = well fitted falling curve with a large enough effect; inconclusive = small, poorly fitted or top-dose-only effect; inactive = no such curve, though single readings can be large or run the other way; further: potency means the concentration at half of the fitted maximal effect; the source files actives as falling curves though it sought activators and does not explain the sign; nearly all actives have a fitted effect of over 65% in size; many hits overshoot -100%
Target sequence (P80244 whole entry, looked up): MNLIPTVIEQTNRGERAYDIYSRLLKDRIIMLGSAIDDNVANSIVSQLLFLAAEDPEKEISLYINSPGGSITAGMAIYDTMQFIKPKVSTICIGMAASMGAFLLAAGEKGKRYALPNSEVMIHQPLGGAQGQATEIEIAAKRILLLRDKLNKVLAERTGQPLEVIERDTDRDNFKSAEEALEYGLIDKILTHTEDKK
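ClpP 10 microg/mL final, pH 8 Tris/KCl buffer with BSA, glycerol, Tween-20; compound pinned in; FRET-FV substrate; RT 20 min; Ex320/Em430; ΔFRET vs ADEP 5.8 microM, DMSO, no enzyme.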
PINK1 expr mod: modulators of PINK1 expression. AID 624263. PINK1 immunofluorescence, high-content cytometry, 24 h. 0.2% of 410,000 active. Potency, µM (titrated, usually from 76.6 µM), without a hit: at the top dose activation (PINK1 increase), actives largely listed as activators; active = well fitted activation curve with a large enough effect; inconclusive = small, poorly fitted or top-dose-only effect; inactive = flat fitted curve, though single readings scatter; cell line not stated here;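 further: potency means the concentration at half of the fitted maximal effect; % of control where 0% means no effect; nearly all actives have a fitted effect of over 65% in size; a mitochondrial uncoupler was the plate control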
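Fluorescence from anti-PINK1 antibody, together with nuclear and cell stains, was scanned on a laser-scanning cytometer. Before staining, stable-line cells were incubated 24 hours with compounds at 5 concentrations; primary antibody 12 h at 10 degrees C.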
* hit, by the source's call; ? = inconclusive; / = no result given; [ ] = remark or other dose.

SMILES	gsp antagonist	Menin MLL FP FL	Sfp PPTase inh	D2 ag	gsp agonist	ClpP mod	PINK1 expr mod
O=C(CCc1ccc(O)cc1)NN=Cc1ccc2c(c1)OCO2	/	/	/	-2.4	?	-9.0%	-0.1%
O=C(NCC(=O)N(Cc1ccccc1)C(C(=O)NC1CCCC1)c1cccnc1)c1ccco1 (stereo unspecified)	6%	-0.9	13%	2.2	16%	-2.3%	-1.6%
O=C1NC(=S)NC1=Cc1ccccc1O	-6%	/	/	-1.0	?	/	-2.8%
O=C(NCCN1CCCC1)c1ccc(CS(=O)(=O)c2c(Cl)cccc2Cl)o1	9%	3.6	-4%	-1.3	4%	-0.2%	0.2%
Cc1ccc(CCNC(=O)C2CC(c3ccc(C(F)(F)F)cc3)=NO2)cc1 (stereo unspecified)	2%	-1.8	8%	-2.2	22%	-0.3%	3.9%
Cc1cccc(N=Nc2c(C)c(C#N)c(O)[nH]c2=O)c1	-9%	?	3%	-4.7	10%[15.4 µM]	/	-0.6%
N/C(=N\OC(=O)c1ccc(Br)cc1)c1ccncc1	-3%	0.6	19%	42*	0%	/	4.8%
COc1ccc(C(O)c2nc(-c3ccccc3)cs2)cc1 (stereo unspecified)	/	/	/	3.0	/	0.2%	2.8%
O=c1[nH]cc(S(=O)(=O)N2CCOCC2)c(=O)[nH]1	0%	/	/	-3.5	2%[15.4 µM]	/	0.4%
COCc1nnc(NC(=O)C(C)C)s1	7%	-0.7	18%	-3.3	-27%	0.3%	-2.1%
Cc1ccc(S(=O)(=O)N2CCOCC2)cc1NC(=O)COC(=O)c1ccc(Br)o1	-5%	/	/	-4.9	6%	1.0%	2.4%
CCCn1nnnc1NCc1c(F)cccc1Cl	69%[activator]	-4.6	7%	-1.5	-6%	0.1%	1.2%
CCOC(=O)c1ccccc1OCc1cc(/C=N/NC(=O)c2cccnc2)ccc1OC	8%	1.0	14%	6.3	-23%[15.4 µM]	0.2%	-0.2%
COCc1cc(=O)n2c([nH]c3ccccc32)c1C#N	-13%	?	-7%	1.5	22%	5.6%	/
O=C(N/N=C1\C2CN3CCN(C2)CC1(c1ccccc1)C3)Nc1ccccc1	-9%	-1.1	6%	0.3	-15%	/	2.0%
CCc1ccc(CNC(=O)CCc2cn(C)c3ccccc23)cc1	-16%	-3.5	-9%	-5.9	?	?	-1.9%
CN(CC(=O)Nc1ccc(F)cc1)C(=O)COC(=O)c1ccc(=O)n(Cc2ccccc2)n1	8%	/	/	-0.8	2%	1.2%	3.6%
COC(=O)c1ccc(Cc2ccccc2)o1	4%	3.4	-2%	-7.6	-23%	-2.0%	1.8%
CCC(C)NC(=O)[C@H]1N2C(=O)c3ccccc3C2SC1(C)C (stereo partly specified)	-1%	-1.4	-2%	-1.3	20%	-3.1%	-0.5%
CCCCc1n[nH]c2c1/C(=N/O)CC(C)(C)C2	21%	6.0	21%	-3.1	14%	-3.7%	-1.2%
Cc1cc(NC(=O)CSc2nc3cc(Cl)ccc3c(=O)n2C(C)C)no1	9%	/	/	-4.1	14%	-1.1%	?
O=C1C2C3C=CC(O3)C2C(=O)N1CC(O)c1ccccc1 (stereo unspecified)	7%	1.5	-17%	-2.1	4%	1.2%	0.8%
Cc1cc2n(n1)C(c1sccc1C)Nc1ccccc1-2 (stereo unspecified)	-8%	-0.1	-8%	0.4	3%	18µM*	1.8%
COCCNc1nc(NCCN2CCNC2=O)c2sccc2n1	/	/	/	-4.9	/	-22%	2.4%
CN1/C(=C\C(=O)COc2ccc3c(c2)OCO3)C(C)(C)c2ccccc21	40µM*	14	-6%	-1.1	-4%	-18%	-0.4%
O=C(COc1cccnc1[N+](=O)[O-])Nc1ccc(Cl)cc1F	-6%	/	/	1.5	12%	/	7.1%
COc1ccc(OC)c(Nc2nc(-c3cccc([N+](=O)[O-])c3)nc3ccccc23)c1	6%	0.7	6%	-1.4	15%	1.7%	/
Cc1cccc(C)c1NC(=O)Nc1ccc(S(N)(=O)=O)cc1	-1%	-2.1	20%	2.4	-58%[inhibitor]	-1.2%	1.7%
COc1cccc(/C=N/NC(=O)CN2C(=O)NC3NC(=O)NC32)c1 (stereo unspecified)	17%	-0.9	-5%	-1.8	-26%	-5.4%	0.3%
COCCn1c(SCC(=O)Nc2cc(C)on2)nnc1-c1ccccc1	1%	3.7	11%	-2.4	?	/	1.0%
CCOc1ccc(CCNC(=O)c2cc3ccccn3n2)cc1OCC	-14%	3.3	14%	-1.9	26%	-8.4%	0.3%
CC(=O)NC(Cc1c[nH]c2ccccc12)C(=O)N/N=C/c1ccccc1 (stereo unspecified)	3%	2.7	10%	4.7	-2%	-2.7%	-1.1%
COC(=O)c1cc(C(=O)N(Cc2ccccc2)c2ccccn2)cc([N+](=O)[O-])c1	-4%	-0.4	6%	12	-2%	-1.2%	0.0%
CCCN=C1NC(=O)C(CC(=O)NCCc2ccccc2)S1 (stereo unspecified)	9%	3.2	13%	0.6	-18%[15.4 µM]	/	-0.3%
O=[N+]([O-])c1ccc(COc2ccc(CN3CCOCC3)cc2)cc1	16%	/	/	-0.6	/	1.9%	-0.8%
O=C1CCCC2=C1C(c1cn(-c3ccccc3)nc1-c1cccs1)c1c([nH]c(=O)[nH]c1=O)N2 (stereo unspecified)	-9%	-0.1	-3%	4.1	?	-3.4%	/
Cc1nc2ccc(F)cc2cc1C(=O)NCc1ccco1	5%	5.7	20%	-1.3	-4%	0.1%	-0.3%
Cc1ccc(C(=O)Nc2cccc(-c3ccc(N4CCOCC4)nn3)c2)cc1C	-17%	/	/	-1.7	22%[15.4 µM]	/	-2.3%
COc1ccc(/C=C(/NC(=O)c2ccc(C)cc2)c2nc3ccccc3[nH]2)cc1OC	-4%	2.8	5%	-2.5	17%	-20%	0.0%
COc1ccc(N(CC(=O)NCc2ccco2)C(=O)CCC(=O)Nc2nccs2)cc1	2%	-5.8	13%	0.6	15%	/	0.3%
O=C(O)c1ccc(NC(=S)Nc2ccc(S(=O)(=O)Nc3ccccn3)cc2)cc1	6%	/	/	-1.4	7%	/	1.1%
CC(C)(C)NCc1cccn1-c1sc2c(c1C#N)CCCC2	12%	-2.1	16%	-5.7	2%	0.8%	-0.4%
O=C(Nc1ccc2c(c1)Cc1ccccc1-2)c1ccco1	-4%	3.3	17%	-0.7	12%	-11%	3.4%[38.3 µM]
O=C(NCc1ccco1)C1CCCN1S(=O)(=O)c1ccccc1C(F)(F)F (stereo unspecified)	-7%	1.7	13%	-0.5	-11%	1.4%	0.2%
O=C(COC(=O)C1CC(=O)N(c2ccccc2)C1)c1ccccc1 (stereo unspecified)	-4%	-0.3	27%	-5.4	-1%	-1.1%	2.1%
Cc1ccccc1OCC(=O)N/N=C1\CCOc2c(C)cccc21	2%	7.9	7%	-4.3	7%	-1.4%	24%[38.3 µM]
COc1cc(C(=O)NNC(=O)c2n[nH]c3ccccc23)cc(OC)c1OC	2%	/	/	7.2	-30%[inhibitor]	3.6%	0.1%
COc1ccc(CNC(=S)Nc2cc(C)ccc2C)cc1	5%	5.7	4%	-5.4	-30%[inhibitor]	-3.2%	0.6%
O=C(CSCc1ccccc1)Nc1ccc(S(=O)(=O)Nc2ncccn2)cc1	-2%	4.2	-8%	-1.8	5%[15.4 µM]	/	-2.7%
CCOC(=O)C1(CCCc2ccccc2)CCN(C(=O)C2CCCO2)CC1 (stereo unspecified)	2%	-0.4	-1%	-0.2	-26%	/	-1.4%

(more compounds)
SMILES	gsp antagonist	Menin MLL FP FL	Sfp PPTase inh	D2 ag	gsp agonist	ClpP mod	PINK1 expr mod
CSc1ccccc1-n1nnnc1SCC(=O)NCc1cccs1	10%	3.3	11%	-1.2	24%	0.8%	-1.8%
Cc1nc(-c2ccc(Cl)cc2)sc1C(=O)NN	-21%	4.1	6%	-1.2	-8%[15.4 µM]	/	8.8%
O=c1[nH]cnc2scc(C3COc4ccccc4O3)c12 (stereo unspecified)	6%	0.5	-2%	-3.0	5%	-0.6%	-2.0%
COc1cc(NC(C)=O)ccc1NC(=O)c1cc2ccccc2o1	3%	1.9	8%	-27	5%	-0.8%	1.6%
O=C(CSc1nnc(CNC(=O)c2cccs2)o1)Nc1ccc(Cl)cc1	0%	/	19%	-1.3	-23%	-0.7%	-0.4%
CCCCC(CC)CN1C(=O)/C(=C/c2ccncc2)SC1=S (stereo unspecified)	2%[15.4 µM]	9.2	-14%	-0.3	?	-5.8%	6.4%
O=C1c2ccccc2-c2ccc(C(=O)N3CCCCC3)cc21	10%	4.4	-33%	-0.2	-7%[15.4 µM]	/	2.2%
COc1cccc(NC(=O)CSc2ncnc3c2oc2ccccc23)c1	-2%	8.5	71µM*	3.0	?	-7.4%	9.7%
O=C(CCn1c(=O)oc2ccccc21)NCCC1=CCCCC1	0%	-0.1	15%	-0.2	-8%	0.5%	1.3%
COc1cc2c(cc1OC)C(c1ccc(Cl)cc1)CC(=O)N2 (stereo unspecified)	-7%	-9.0	1%	-5.2	0%	0.0%	0.9%
CCc1ccc(C(=O)CN2CCSC2=N)cc1	-2%	8.8	-12%	-5.2	?	-12%	3.1%
CCn1c(CC(=O)Nc2ccc(F)cc2)nnc1SCC(=O)Nc1nncs1	4%	6.7	18%	1.9	17%	/	1.7%
CC(C)=CCCC1=CCC(/C(C)=N/NC(N)=O)CC1 (stereo unspecified)	20%	-2.0	15%	2.5	-38%	-0.2%	5.6%

No new results follow: three of the compounds above.
SMILES	gsp antagonist	Menin MLL FP FL	Sfp PPTase inh	D2 ag	gsp agonist	ClpP mod	PINK1 expr mod
Cc1nc(-c2ccc(Cl)cc2)sc1C(=O)NN	-21%	4.1	6%	-1.2	-8%[15.4 µM]	/	8.8%
O=c1[nH]cnc2scc(C3COc4ccccc4O3)c12 (stereo unspecified)	6%	0.5	-2%	-3.0	5%	-0.6%	-2.0%
COc1cc(NC(C)=O)ccc1NC(=O)c1cc2ccccc2o1	3%	1.9	8%	-27	5%	-0.8%	1.6%

Source: PubChem BioAssay (National Center for Advancing Translational Sciences (NCATS))

No enrichment for hits; about 5.1% have a hit in one of these screens.
